# CtBP-E1A blk: qHTS Assay for Inhibitors of the CtBP/E1A Interaction; AlphaScreen GST-E1A/His-CtBP binding, 1536-well; stronger effect = lower value; control for the full effect not named in the record; activity change, % (no concentration beside the values); hit rate 0.49% among 340,000; CtBP / adenovirus E1A interaction (AlphaScreen); in the data active means activity change below about -65%; inconclusive means about -30% to -65%; inactive means above about -30%; also: % is scaled to controls: 0 for no effect and ±100 for the full control effect; compound concentration not given in the record
#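 Protein mix (5X: 125 nM each GST-E1A, His-CtBP) was incubated with pinned compound 2 h at 37 deg C in dark, in 50 mM Tris pH 8.0 buffer with 300 mM NaCl. Glutathione donor and nickel acceptor beads followed; AlphaScreen signal read after 1 h.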
# Sfp inh: qHTS Assay for Inhibitors of Bacillus subtilis Sfp phosphopantetheinyl transferase (PPTase). Biochemical Sfp PPTase activity, qHTS. Potency, µM, inactives show max response, negative = inhibition, actives largely listed as inhibitors. hit rate 3.5% among 310,000. 4'-phosphopantetheinyl transferase ffp (Bacillus subtilis), Q9F4F7; active = well fitted inhibition curve with a large enough effect; inconclusive = small, poorly fitted or top-dose-only effect, or another doubt; inactive = no such curve, though single readings can be large or run the other way;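 also: the enzyme is Sfp with the accession as filed and its product quenches rhodamine fluorescence; potency is read from the fitted curve at half-maximal effect; 0% = enzyme reaction without inhibitor and -100% = no enzyme wells; top concentration of the series not given in the record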
#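 Buffer: 50 mM Hepes-Na pH 7.6, 10 mM MgCl2, 0.01% Nonidet P-40, 0.01% BSA. Enzyme 15 nM, pre-exposed to compound 15 min; substrates then added and fluorescence change tracked over 30 min.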
# gsp ag: qHTS for Agonist of gsp, the Etiologic Mutation Responsible for Fibrous Dysplasia/McCune-Albright Syndrome: qHTS; gsp mutant cells, cAMP HTRF, 30 min; control for the full effect not named in the record; Potency, µM (series often up to 76.9 µM), without a hit: at the highest dose activation (cAMP increase), usual class: activators; hit rate 0.13% among 340,000; active = well fitted activation curve with a large enough effect; inconclusive = small, poorly fitted or top-dose-only effect, or another doubt; inactive = no such curve, though single readings can be large or run the other way; cell line not stated here;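 also: phosphodiesterase inhibitor Ro 20-1724 added with compounds to block cAMP breakdown; potency is read from the fitted curve at half-maximal effect; nearly all actives have a fitted effect of over 60% in size; about a fifth of the inactives were tested at one dose only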
#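 Cells stably selected in G418 were plated at 2000/well, grown 16-24 hr, then given compounds in DMSO with the PDE inhibitor […] (300 uM solution added) for 30 min at 37C; cAMP was read by HTRF.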
# ClpP mod: qHTS Assay for Activators of ClpP. AID 651965, 2013. purified B. subtilis ClpP, FRET peptide cleavage, 20 min. hit rate 1.9% among 340,000. Potency, µM (series often up to 57.5 µM), without a hit: top-dose activity change, negative = active; active = well fitted falling curve with a large enough effect; inconclusive = small, poorly fitted or top-dose-only effect; inactive = no such curve, though single readings can be large or run the other way; also: potency is read from the fitted curve at half-maximal effect; the source files actives as falling curves though it sought activators and does not explain the sign; nearly all actives have a fitted effect of over 65% in size; many hits overshoot -100%
# Target sequence (P80244 whole entry, looked up): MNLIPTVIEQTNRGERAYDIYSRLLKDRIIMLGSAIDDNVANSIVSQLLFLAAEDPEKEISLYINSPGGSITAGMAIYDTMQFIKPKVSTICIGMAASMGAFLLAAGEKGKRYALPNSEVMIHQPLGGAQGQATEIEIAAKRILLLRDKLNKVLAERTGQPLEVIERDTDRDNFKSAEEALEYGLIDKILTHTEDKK
#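 Purified B. subtilis ClpP, 10 microg/mL final in Tris/HCl pH8 with KCl, BSA, glycerol and Tween-20, cleaved an Abz/nitrotyrosine-quenched decapeptide. Fluorescence (ex 320, em 430) was read at 0 and 20 min at room temperature. Delta was normalized to 5.8 microM ADEP and DMSO/no-enzyme controls.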
# TRPV1 PAM: HTS Assay for Compounds that Act as Potentiators of the Vanilloid Receptor 1. Transient receptor potential cation channel subfamily V member 1 (Homo sapiens), Q8NER1. TRPV1-expressing cells, Fluo-8 calcium influx, capsaicin EC20 potentiation; host cell line not named in the record; control for the full effect not named in the record. potentiation, % at 8.33 µM. hit rate 0.02% among 320,000. AID 540277, 2011; active means potentiation above 80%; inconclusive means 30% to 80%; inactive means below 30%; also: 0% is about no effect
# Target sequence (Q8NER1 whole entry, looked up): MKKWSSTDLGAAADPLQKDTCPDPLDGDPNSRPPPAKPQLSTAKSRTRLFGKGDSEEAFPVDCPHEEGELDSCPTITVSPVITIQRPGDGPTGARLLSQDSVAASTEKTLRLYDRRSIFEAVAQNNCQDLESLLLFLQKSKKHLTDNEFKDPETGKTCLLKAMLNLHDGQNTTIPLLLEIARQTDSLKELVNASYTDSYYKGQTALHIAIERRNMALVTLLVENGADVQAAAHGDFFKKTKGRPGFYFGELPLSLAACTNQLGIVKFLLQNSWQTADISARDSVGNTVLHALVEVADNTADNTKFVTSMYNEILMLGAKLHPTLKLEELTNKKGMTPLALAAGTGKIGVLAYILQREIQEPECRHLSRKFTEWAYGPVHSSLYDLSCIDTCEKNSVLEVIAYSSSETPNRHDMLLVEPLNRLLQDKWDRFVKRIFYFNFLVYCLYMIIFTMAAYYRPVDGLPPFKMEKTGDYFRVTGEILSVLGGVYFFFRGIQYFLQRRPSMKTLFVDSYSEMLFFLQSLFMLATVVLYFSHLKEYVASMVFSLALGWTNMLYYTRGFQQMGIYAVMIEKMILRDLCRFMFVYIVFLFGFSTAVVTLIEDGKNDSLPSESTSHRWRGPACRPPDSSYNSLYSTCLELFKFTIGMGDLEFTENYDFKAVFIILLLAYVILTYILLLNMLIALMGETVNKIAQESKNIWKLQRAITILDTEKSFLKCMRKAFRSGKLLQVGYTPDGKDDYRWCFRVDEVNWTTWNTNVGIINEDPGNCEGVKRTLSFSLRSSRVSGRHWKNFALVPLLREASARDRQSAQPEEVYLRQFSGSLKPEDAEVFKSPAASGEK
#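 TRPV1-expressing cells were cultured overnight at 35.5C and loaded with Fluo-8 calcium dye for 40 to 90 min at room temperature. After a 10 s baseline, compound was added and calcium influx was read kinetically for 3 min (ex 480/em 520 nm).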
# Menin-MLL FL inh: qHTS Assay for Inhibitors Targeting the Menin-MLL Interaction in MLL Related Leukemias: Competition With Fluorescein Labeled MLL-derived Peptide | Fluorescence polarization, fluorescein-MLL peptide displacement from menin | FP activity change, % at 61.4 µM | 290,000 tested, under 10 active | AID 1766, 2009; inconclusive = falling polarisation curve, or a change in total fluorescence; inactive = total fluorescence flat and polarisation flat or rising; no compound was filed as active; the % refers to the polarisation; negative = inhibition;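 also: % of control where 0% means no effect; inhibitors lower the polarisation; unlabelled MLL peptide was the positive control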
# gsp antagonist: qHTS for Antagonists of gsp, the Etiologic Mutation Responsible for Fibrous Dysplasia/McCune-Albright Syndrome: qHTS | hit rate 0.4% among 340,000 | Potency, µM (top dose mostly 76.9 µM), inactives show at the highest dose activity change, negative = inhibition, hits mostly inhibitors | gsp-mutant cells, cAMP HTRF, 30 min; control for the full effect not named in the record; active = falling curve of any shape with a large fitted effect; inconclusive = falling curve, mostly with a smaller effect; inactive = flat or rising curve; cell line not stated here;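 also: intracellular cAMP measured with PDE inhibitor Ro 20-1724 present during compound exposure; potency is read from the fitted curve at half-maximal effect; % is scaled to controls: 0 for no effect and ±100 for the full control effect; nearly all actives have a fitted effect of over 65% in size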
#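 HTRF cAMP measurement after 30 min RT detection following 30 min, 37C compound treatment alongside […] (added as 300 uM solution) in G418-selected cells seeded at 2000/well and grown 16–24 h.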
# * hit, by the source's call; ? = inconclusive; . = no result given; & = joins results of further samples; [ ] = remark or other dose.
canonical_smiles,CtBP-E1A blk,Sfp inh,gsp ag,ClpP mod,TRPV1 PAM,Menin-MLL FL inh,gsp antagonist
Cc1cccc2cc(CN(CCCN(C)C)C(=S)NCCc3ccccc3)c(=O)[nH]c12,1,9%,0%[15.4 µM],-0.7%,9,-8.1,9%
O=C1CSC(c2ccccn2)N1c1ccc(C(F)(F)F)cc1 (stereo not drawn),3,27%,30%,0.1%,2,3.9,2%
Cc1cc(=O)[nH]c(SCC(=O)Nc2nc3ccccc3s2)n1,-1,79µM*,24%,-2.1%,?,-0.8,-6%
O=C(c1ccc(S(=O)(=O)Nc2ccccc2)cc1)N1CCOCC1,4,9%,13%,-6.8%,-15,0.1,6%
NC(=S)N/N=C/c1ccc(-c2ccc(SC(F)F)cc2)o1,-5,?,-63%[inhibitor],.,15,27,-12%
CCN(CC)C(=O)CC(c1cc(OC)c(OC)c(OC)c1)c1c(OC)cc(OC)c2ccc(=O)oc12 (stereo not drawn),-1,-7%&12%,.,-19%,-16,-2.5&1.9,5%
Cn1c(=O)oc2cc(S(=O)(=O)Nc3ccccc3F)ccc21,13,4%,-2%[15.4 µM],-0.1%,11,-2.1,17%
COc1cccc(C(=O)NCCC2=CCCCC2)c1OC,4,11%,20%,-2.7%,-7,0.3,-11%
CC(C)NS(=O)(=O)c1ccc(OCC(=O)Nc2ccc(F)cc2F)cc1,-8,2%,0%,-1.2%,8,5.6,-3%
COc1ccc(C#Cc2cnc3c(c2)C(=O)N([C@H](C)CO)C[C@@H](C)[C@H](CN(C)C(=O)CN(C)C)O3)cc1,1,.,-120%[inhibitor],-14%,.,.,.

# An excerpt from above in order of SMILES length, highest first.
canonical_smiles,CtBP-E1A blk,Sfp inh,gsp ag,ClpP mod,TRPV1 PAM,Menin-MLL FL inh,gsp antagonist
Cc1cccc2cc(CN(CCCN(C)C)C(=S)NCCc3ccccc3)c(=O)[nH]c12,1,9%,0%[15.4 µM],-0.7%,9,-8.1,9%
O=C(c1ccc(S(=O)(=O)Nc2ccccc2)cc1)N1CCOCC1,4,9%,13%,-6.8%,-15,0.1,6%
Cn1c(=O)oc2cc(S(=O)(=O)Nc3ccccc3F)ccc21,13,4%,-2%[15.4 µM],-0.1%,11,-2.1,17%

# Continued.
canonical_smiles,CtBP-E1A blk,Sfp inh,gsp ag,ClpP mod,TRPV1 PAM,Menin-MLL FL inh,gsp antagonist
CN1CCCC(C#CC(O)(c2ccccc2)c2ccccc2)C1 (stereo not drawn),3,11%,14%[15.4 µM],.,11,-4.6,6%
COc1ccc(C(=O)NCc2ccc(C)cc2)cc1S(=O)(=O)N1CCCC1,-7,.,-42%[inhibitor],-2.7%,-2,.,-7%
CCC[C@@H]1CCCC/C=C\CCCC(=O)OCCN1C(=O)OC(C)(C)C,9,.,.,2.1%,-14,.,-7%
CC1CCC(NC(=O)CN2C(=O)NC3(CCCCCC3)C2=O)CC1 (stereo not drawn),9,.,?,1.0%,-5,.,4%
O=C(O)c1cc(NC(=O)c2ccccc2[N+](=O)[O-])ccc1O,-9,-5%,-4%,.,-1,2.1,-10%
O=C(Nc1ccccc1)C1CCCN1C(=O)Nc1ccccc1[N+](=O)[O-] (stereo not drawn),9,0%,?,0.6%,4,1.2,4%
CC1=C(C(=O)Nc2ccccc2)C(c2ccccc2[N+](=O)[O-])NC(=O)N1 (stereo not drawn),.,20µM*,-46%[inhibitor],-3.4%,-5,?,4%
CCCn1nnnc1NCc1ccccc1OCc1ccc(F)cc1,22,5%,-26%,0.4%,-9,3.2,-7%
CC1=NN2C(=N)/C(=C\c3cc(C)n(Cc4ccccc4)c3C)C(=O)N=C2S1,-19,0%,-18%,.,1,7.8,-14%
N#Cc1ccc(S(=O)(=O)N2CCC(C(=O)N3CCN(Cc4ccc5c(c4)OCO5)CC3)CC2)cc1,-4,.,-19%,0.8%,-11,.,-4%
O=C(O)CCC(=O)N(Cc1ccco1)C1CC(=O)N(c2ccccc2)C1=O (stereo not drawn),1,8%,22%,-1.1%,0,-4.1,?
CC(=O)C1=C(C)NC(C)=C(C(C)=O)C1c1ccc(-c2ccccc2Cl)o1,-6,?,7%,-4.8%,-5,2.2,-12%
Cc1ccc(S(=O)(=O)N2CCCCC2)cc1C(=O)NCCCN1CCOCC1,-2,10%,-5%,1.3%,?,.,6%
CCN(Cc1nc2cc(Cl)ccc2c(=O)[nH]1)C(=O)C1CC(=O)N(c2cccc3ccccc23)C1 (stereo not drawn),1,.,6%,0.1%,12,.,-13%
COc1ccc(C(=O)CSc2ccccc2C(=O)O)cc1,.,0%,-91%[inhibitor],-0.1%,-7,-4.8,2%
CC1CCc2ccc(F)cc2N1S(=O)(=O)c1cccs1 (stereo not drawn),0,11%,14%,-8.9%,0,3.6,-14%
Cc1cc(C)n(CCNc2nc3nonc3nc2N2CCCCC2)n1,-3,8%,-22%[15.4 µM],.,0,0.4,-10%
COc1ccc(NC(=O)CN(C)C(=O)CSc2ccc3c(c2)OCCO3)cc1,-1,24%,?,0.2%,5,.,3%
Cc1cc(NC(=O)CCC(=O)N(Cc2ccco2)C(C(=O)NC2CCCC2)c2ccc(F)cc2)no1 (stereo not drawn),0,-8%,-31%[inhibitor],.,0,-3.5,2%
CCn1c(CNC(=O)Cc2ccc(OC)cc2)nnc1SCC(=O)Nc1nccs1,-15,17%,-29%,-1.2%,-1,1.7,4%
CCOc1ccc(-c2nnc(SCC(=O)NC(C)(C)C)nc2-c2ccc(OCC)c(OC)c2)cc1OC,-6,-10%,-40%[inhibitor],-0.1%,-3,-3.1,4%
O=C(COc1ccc(C(=O)O)cc1)Nc1cccc(C(F)(F)F)c1,3,14%,0%,.,-4,3.7,-8%
O=C1OC2(O)C3C4C=CC(C4)C3C(=O)N2c2ccccc21 (stereo not drawn),.,12%,-8%,-2.1%,-7,8.3,8%
COc1cc(C(=O)OC(C)CN2CCCCC2)cc(OC)c1OC (stereo not drawn),-4,6%,-7%,-14%,2,1.3,7%
CCCn1c(SCC(=O)Nc2cccc(C(=O)OCC)c2)nnc1-c1ccoc1C,-19,4%,7%,0.9%,2,-2.5,-9%
O=C(NCCSc1ccc(Br)cc1)c1ccccc1,-19,9%,-7%[15.4 µM],.,5,-0.2,10%
Cc1[nH]c2ccccc2c1C(=O)COC(=O)C1CC(=O)N(Cc2ccco2)C1 (stereo not drawn),-10,-9%,-11%,-4.4%,13,4.1,-11%
COc1cc(-c2nnc(SCC(=O)N(Cc3ccccc3)C(C)(C)C)o2)cc(OC)c1OC,-10,1%,10%,-6.3%,3,-1.2,-8%
COC(=O)c1cc(-c2cccs2)nc2ccccc12,10,2%,11%[15.4 µM],-2.4%,4,3.0,0%
CCOc1ccccc1NC(=O)CN1CCC(C(=O)c2ccc(OC)cc2)CC1,-1,-9%,6%,.,5,-0.3,-21%
Cc1ccnc(NC(=O)C2CCN(S(=O)(=O)c3cccc(C(F)(F)F)c3)CC2)c1,3,12%,1%[15.4 µM],1.5%,8,.,-6%
Cc1ccc(NC(=O)COC(=O)c2ccc(OCc3c(C)noc3C)cc2)cc1S(=O)(=O)N1CCOCC1,13,6%,10%,-1.4%,-1,-0.1,16%
CCCNC(=O)CN(CCc1ccccc1)S(C)(=O)=O,2,18%,-41%,1.0%,2,4.4,-20%
CNC(=O)C[C@H]1C(=O)N(C2CCCCC2)C[C@@H]1C,-5,.,-82%[inhibitor],-1.5%,.,.,.
CCOc1cc(/C=C(\C#N)C(=O)Nc2cccc(C(=O)O)c2)cc(Br)c1OC(=O)c1ccc(OC)cc1,-12,79µM*,10%,.,-4,?,-12%
O=C(c1cc2ccccc2cc1O)N1CCCC1,.,15%,-17%,-6.0%,3,5.9,3%
Cc1c(-c2ccccc2)n(O)c(-c2ccc(N(C)C)cc2)[n+]1[O-],3,.,-22%,4.0%,.,.,.
NNC(=O)C1CC(O)CN1S(=O)(=O)c1ccc2ccccc2c1 (stereo not drawn),3,.,16%,-0.4%,0,.,12%
COc1cccc(NC(=O)CCNS(=O)(=O)c2cccc3nonc23)c1,4,6%,36%,.,-34,6.0,-5%
COCCn1c(Cc2ccccc2)nnc1SCC(=O)Nc1cc(C)on1,5,10%,21%,0.3%,4,-0.9,4%
COc1ccc(N2C(=S)NC3CS(=O)(=O)CC32)cc1 (stereo not drawn),1,-10%,-4%[15.4 µM],.,15,6.6,3%
CC(=O)N1CCN(C(=O)CSc2cc(C)c(Br)cc2C)CC1,0,6%,-50%[inhibitor],-1.5%,?,.,0%
COc1ccccc1N1CCN(C(=O)COc2cc(C)cc3oc(=O)cc(C)c23)CC1,-14,2%,?,?,13,.,-2%
COc1ccc(/C=C/C(=O)OCC(=O)NCCC2=CCCCC2)cc1S(=O)(=O)N1CCOCC1,.,8%,-2%,-4.0%,-4,0.1,-25%
CC(C)C(=O)NNC(=O)CN1CCN(c2nc(-c3ccccc3)cs2)CC1,-6,23%,0%,0.5%,1,1.9,5%
Cc1ccccc1-n1c(SCC(=O)Nc2c(C)cccc2C)nc(O)cc1=O,-8,6%,14%[15.4 µM],.,6,-0.2,-33%
COc1ccc(Cl)cc1NC(=S)N(Cc1ccc(C(=O)O)cc1)Cc1ccc(OC)c(OC)c1,0,40µM*,0%,.,3,-5.6,?
O=C(Nc1ccccc1)C(Cc1ccccc1)NC(=O)C12CC3CC(CC(C3)C1)C2 (stereo not drawn),0,16%,1%,0.7%,1,-2.0,9%

# Screens: PubChem BioAssay, National Center for Advancing Translational Sciences (NCATS)

# Rows were taken by chance; overall some 5.3% were active at least once.
